Screens (PubChem BioAssay)
NS1 inh: inhibitors of influenza NS1 protein function | S. cerevisiae slowed by influenza A NS1, growth recovery by OD600 | Potency, µM (titrated, usually from 46.1 µM), for inactives: top-dose activity, positive = more growth | 270,000 tested, 0.4% active | AID 2326; active means well fitted rising curve with a large enough effect; inconclusive means small, poorly fitted or top-dose-only effect; inactive means no such curve, though single readings can be large or run the other way; note: nearly all actives have a fitted effect of over 50% in size
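A cell-based growth assay was used: compounds that relieve NS1-induced slow growth of budding yeast raise OD600. Assay medium was yeast nitrogen base with ammonium sulphate and -URA supplement, pH 6.0, with 2% galactose.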
Lassa entry inh: inhibitors of Lassa virus binding or cell entry | Lassa virus pseudotype entry inhibition, cell reporter; control for the full effect not named in the record | Potency, µM (doses to about 37.9 µM), for the others: top-dose activity change, negative = inhibition, hits mostly inhibitors | 300,000 tested, 1.2% active; active means well fitted inhibition curve with a large enough effect; inconclusive means small, poorly fitted or top-dose-only effect, or effect the other way; inactive means flat fitted curve, though single readings scatter; tested in HEK293 cells; note: % is set by controls: 0 for no effect and ±100 for the full control effect; nearly all actives have a fitted effect of over 50% in size; luciferase read-out
Marburg entry inh: Marburg virus entry inhibition; Marburg virus pseudotyped entry inhibition, cell reporter; control for the full effect not named in the record; about a third of the inactives were read at about 46 µM; Potency, µM (highest dose often 37.8 µM), for the others: top-dose activity change, negative = inhibition, hits mostly inhibitors; 300,000 tested, 1.8% active; active = well fitted inhibition curve with a large enough effect; inconclusive = small, poorly fitted or top-dose-only effect, or effect the other way; inactive = flat fitted curve, though single readings scatter; tested in HEK293 cells; about a fifth of its hits are not listed in these tables; note: % is set by controls: 0 for no effect and ±100 for the full control effect; luciferase read-out
RE007 growth inh: less growth of the S. pombe RE007 Vpr strain | S. pombe RE007 Vpr strain, BacTiter-Glo ATP luminescence, 24 h; control for the full effect not named in the record | 360,000 tested, 0.21% active | Potency, µM (series often up to 92.2 µM), inactives show top-dose activity change, negative = less growth; active = well fitted falling curve with a large enough effect; inconclusive = small, poorly fitted or top-dose-only effect; inactive = no such curve, though single readings can be large or run the other way;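 note: % is set by controls: 0 for no effect and ±100 for the full control effect; nearly all actives have a fitted effect of over 50% in size; the assay follows cell death caused by Vpr and the record does not say whether a fall means rescue or toxicity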
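Fission yeast strain RE007, carrying one chromosomally integrated HIV-1 vpr copy, was seeded at OD 0.01 in PMG+AL medium with 23 nL pinned compound. After 24 h at 30 °C and 99% humidity, viability was read by BacTiter-Glo luminescence.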
SARS PLP yeast: inhibitors of SARS-CoV papain-like protease in yeast; S. cerevisiae expressing SARS-CoV PLpro, growth rescue; control for the full effect not named in the record; Potency, µM (doses to about 32.9 µM), inactives show top-dose activity, positive = growth rescue; 330,000 tested, 0.19% active; AID 485353; active means well fitted rising curve with a large enough effect; inconclusive means small, poorly fitted or top-dose-only effect; inactive means no such curve, though single readings can be large or run the other way; note: 0% is about no effect; nearly all actives have a fitted effect of over 55% in size; growth read by luminescence after 48 h
2A StopGo: FMDV 2A StopGo reporter, luciferase signal; human cells with a luciferase reporter of 2A StopGo recoding; control for the full effect not named in the record; Potency, µM (doses to about 57.9 µM), for inactives: at the top dose signal change, negative = less light; 410,000 tested, 1.2% active; active = well fitted falling curve with a large enough effect; inconclusive = small, poorly fitted or top-dose-only effect; inactive = no such curve, though single readings can be large or run the other way; tested in HEK293T cells; note: % is set by controls: 0 for no effect and ±100 for the full control effect; nearly all actives have a fitted effect of over 45% in size; luciferase light after 4 h
Cruzain noTriton: blocks cruzain activity in detergent-free assay; purified cruzain, Z-FR-AMC fluorescence, no detergent; 200,000 tested, 2.3% active; AID 1476; Potency, µM, without a hit: max response, negative = inhibition, most hits filed as inhibitors; P25779;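 note: plate controls were enzyme without inhibitor for no effect and buffer without enzyme for full effect; nearly all actives have a fitted effect of over 40% in size; top concentration of the series not given in the record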
Target sequence (P25779 123-467 limits assumed): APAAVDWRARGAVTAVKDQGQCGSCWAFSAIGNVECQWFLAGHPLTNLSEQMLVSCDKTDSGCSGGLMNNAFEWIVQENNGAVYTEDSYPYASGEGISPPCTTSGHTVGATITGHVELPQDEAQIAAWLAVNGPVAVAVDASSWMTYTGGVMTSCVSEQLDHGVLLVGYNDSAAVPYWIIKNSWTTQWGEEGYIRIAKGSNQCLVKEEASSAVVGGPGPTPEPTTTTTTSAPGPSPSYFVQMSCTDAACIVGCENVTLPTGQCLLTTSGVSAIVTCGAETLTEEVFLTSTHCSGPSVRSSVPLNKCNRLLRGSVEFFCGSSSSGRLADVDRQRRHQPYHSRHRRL
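Purified cruzain at 1.5 nM, pre-incubated 15 min with compound at room temperature in 100 mM sodium acetate pH 5.5, 5 mM DTT, 0.00005% Triton X-100. Reaction started with 2 uM Z-FR-AMC; AMC fluorescence increase over 60 s gives rate.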
Cruzain Triton: inhibitors of Trypanosoma cruzi cruzain with detergent; P25779; purified cruzain, Z-FR-AMC fluorescence, 0.01% Triton; Potency, µM, without a hit: max response, negative = inhibition, usual class: inhibitors; 200,000 tested, 0.43% active;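 note: plate controls were neutral wells for no effect and buffer without enzyme for full effect; nearly all actives have a fitted effect of over 40% in size; top concentration of the series not given in the record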
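In this qHTS format, compounds are incubated with 1.5 nM cruzain for 15 min at room temperature before 2 uM Z-FR-AMC is added. Release of AMC is followed at 360/450 nm, and progress is taken as the 60 s fluorescence difference.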
An asterisk follows results filed as active; ? = inconclusive; nt = no result given; & = joins results of further samples; [ ] = remark or other dose. Unless noted, calls come from the whole dose curve; as a rule, active = well fitted curve in the direction sought with a large enough effect; inconclusive = small, poorly fitted or top-dose-only effect, or another doubt; inactive = no such curve, though single readings can be large; an effect the other way counts as inactive or inconclusive. Potency is the fitted concentration of half-maximal effect. This is a random part of the collection, and some 4.7% of all compounds hit somewhere here.

The opening 3 entries as a preview:
The line under a structure holds: NS1 inh, 2A StopGo, Cruzain Triton, SARS PLP yeast, RE007 growth inh, Marburg entry inh, Cruzain noTriton, Lassa entry inh
> Oc1c(C(c2ccc(Cl)cc2)N2CCCC2)sc2nc(-c3ccco3)nn12 (stereo unspecified)
→ nt, 45%[activator], -7.7%, nt, nt, nt, 14%, 0%[46.1 µM]
> CC1(C)Oc2ccc3ccc(=O)oc3c2-c2cnoc21
→ -33%, -13%, -2.9%, 0%, -8%, 6%, -7%, nt
> Cn1c(=O)c2c(nc(SCCCO)n2Cc2ccccc2Cl)n(C)c1=O
→ -44%, -15%, 4.2%, -3%, 3%, 7%, -2%, 3%

Main list, previewed entries included:
The line under a structure holds: NS1 inh, 2A StopGo, Cruzain Triton, SARS PLP yeast, RE007 growth inh, Marburg entry inh, Cruzain noTriton, Lassa entry inh
> Oc1c(C(c2ccc(Cl)cc2)N2CCCC2)sc2nc(-c3ccco3)nn12 (stereo unspecified)
→ nt, 45%[activator], -7.7%, nt, nt, nt, 14%, 0%[46.1 µM]
> CC1(C)Oc2ccc3ccc(=O)oc3c2-c2cnoc21
→ -33%, -13%, -2.9%, 0%, -8%, 6%, -7%, nt
> Cn1c(=O)c2c(nc(SCCCO)n2Cc2ccccc2Cl)n(C)c1=O
→ -44%, -15%, 4.2%, -3%, 3%, 7%, -2%, 3%
> COC(=O)C1CSC(c2ccc(Cl)cc2)N1C(=O)c1ccccc1 (stereo unspecified)
→ 4%, -7%, nt, -1%, -9%, nt, nt, nt
> Cc1ccc(C)c(S(=O)(=O)N2CCN(C(=O)c3cncc(Br)c3)CC2)c1
→ -33%, -24%, nt, -4%, -2%, -10%[46.1 µM], nt, -6%
> Cn1cnc(S(=O)(=O)Nc2ccc(OC(F)F)cc2)c1
→ -2%, 0%, nt, 0%, 6%, 2%, nt, 8%
> COc1ccc(-c2cnc(C)o2)cc1S(=O)(=O)Nc1ccc(C)c(F)c1
→ nt, 78%[activator], -8.2%, nt, nt, nt, -9%, ?
> CSc1ccccc1-c1nnc(-c2ccc(Cl)cc2)o1
→ -7%, -13%, -1.6%, -9%, ?, ?, 5%, ?
> COC(=O)Cc1[nH]nc2c1C(c1c[nH]c3ccccc13)C(C#N)=C(N)O2 (stereo unspecified)
→ ?, -11%, 4.8%, 3%, 18%, 0%&0%, 6%, 0%
> C[C@@H](C(=O)Nc1ccccc1N1CCOCC1)N1C(=O)C2CCCCC2C1=O (stereo partly specified)
→ nt, 10%, nt, 9%, 6%, 5%[46.1 µM], nt, 30%[46.1 µM]
> CCCN(Cc1ccccc1)C(=O)Nc1ccc2c(c1)nnn2C
→ -10%, nt, 2.0%, -2%, 1%, ?, 13%, 2.6µM*
> CCc1cccc(NC(=O)c2ccc3c(=O)n4nc(Nc5ccccc5OC)sc4nc3c2)c1
→ nt, 0%, -2.8%, nt, nt, nt, 1%, ?
> COc1ccc(OC)c(C(=O)CSc2nccc(-c3ccc(Br)cc3)n2)c1
→ 1%, nt, -4.2%, -4%, 2%, -27%, -9%, -27%
> Oc1cc(Br)ccc1C=Nc1ccc(N2CCCCC2)cc1
→ 6%, -7%, nt, 5%, 4%, nt, nt, nt
> O=C(O/N=C/c1ccc(Br)cc1)c1ccc(F)cc1
→ nt, 13%, nt, nt, 51%, 1%, nt, -2%
> CCOC(=O)c1c(S(=O)(=O)N2CCCC(C(=O)N3CCN(c4ccccc4)CC3)C2)c(C)n(C)c1C (stereo unspecified)
→ nt, -5%, 0.9%, nt, nt, nt, 4%, 8%[46.1 µM]
> O=C(O)CC(SCC(=O)NC1CCCc2ccccc21)C(=O)O (stereo unspecified)
→ 6%, -22%, nt, -1%, -2%, nt, nt, nt
> COc1ccc(OC)c(-n2nnnc2SCC(=O)Nc2ccccc2OC)c1
→ 13%, 6%, nt, 9%, 19%, nt, nt, nt
> COc1ccc(C)cc1NCc1cccc(OC)c1OC
→ -41%, -16%, -5.1%, 5%, -16%, -9%, 1%, 5%
> CCSC(C)CC1C/C(=N/O)c2c(CC)noc2C1 (stereo unspecified)
→ -35%, -19%, 0.1%, ?, 3%, ?, -2%, -5%
> Cc1c(C(c2ccc(Br)cc2)c2c(O)c3ccccc3oc2=O)c(=O)n(-c2ccccc2)n1C (stereo unspecified)
→ nt, -2%&27%, -9.4%, -5%, 5%, 27%&27%[46.1 µM], ?, ?
> COc1ccc2c(c1)Sc1ccccc1N2CCN(C)C
→ -10%, -12%, 6.6%, -9%, -10%, 11µM*, -4%, ?
> CC(Cc1cccnc1)NC(=O)c1cc(COc2ccc(F)cc2Cl)on1 (stereo unspecified)
→ -12%, 13%, nt, -1%, -10%, 13%, nt, -11%
> CC1(C)C2CCC1(CS(=O)(=O)N1CCC(C(N)=O)CC1)C(=O)C2 (stereo unspecified)
→ 1%, -10%, nt, 1%, -1%, ?, nt, 1%
> CSc1nnc(SCC#N)s1
→ 2%, -13%, nt, 3%, 3%, -1%, nt, ?
> Cc1ccc(N2C(=O)C3C4C=CC(CC4)C3C2=O)c([N+](=O)[O-])c1 (stereo unspecified)
→ 4%, -5%, nt, 0%, -15%, nt, nt, nt
> O=C(N=C1SC2CS(=O)(=O)CC2N1Cc1ccccc1Cl)C1CCCO1 (stereo unspecified)
→ -9%, -9%, nt, 7%, 4%, nt, nt, nt
> CCSc1nc(C2CC2)cc(-c2ccco2)c1C#N
→ -3%, -29%, -12%, -7%, -3%, -4%, 1%, 5%
> Cc1ccc(-c2nc(NC(=O)CSc3nnc4scc(-c5ccccc5)n34)ns2)cc1
→ ?, ?, nt, -1%, -5%, nt, nt, nt
> Cc1ccc(C(=O)Nc2ccc(Cl)cc2C(F)(F)F)c(Cl)c1
→ -3%, 45%[activator], 2.3%, 13%, -15%, 13%, 0%, 18%
> CCOC(=O)C1(CCc2ccccc2)CCN(Cc2ccc(OC)cc2)CC1
→ -5%, -8%, nt, -1%, 4%, ?, nt, ?
> Cc1cc(NN)nc(Cc2ccccc2)n1
→ -3%, -13%, nt, -3%, 8%, -39%[46.1 µM], nt, ?
> COc1cc2c(cc1OC)n(CC(=O)Nc1ccc(C)cc1C)c(=O)n1nc(-c3ccccc3)nc21
→ nt, -6%, -4.0%, nt, nt, 2%[46.1 µM], 6%, 4%[46.1 µM]
> CCC(=O)N1CCc2cc(Br)cc(S(=O)(=O)N3CCC(C(=O)Nc4ccccc4CC)CC3)c21
→ nt, -28%, -12%, nt, nt, -1%[46.1 µM], ?, 15%[46.1 µM]
> CCn1c(SCC(=O)Nc2cc(C)on2)nnc1-c1ccc(S(=O)(=O)N2CCN(C)CC2)cc1
→ -10%, 8%, 4.4%, 11%, 3%, 2%, -13%, ?
> c1ccc(C2C/C(=N\N3CCOCC3)c3ccccc3O2)cc1 (stereo unspecified)
→ -2%, -8%, -2.8%, -1%, -8%, 6%, 9%, 3%
> O=c1ccc(-c2ccc([N+](=O)[O-])cc2)nn1-c1ccccc1
→ nt, 6%, nt, 1%, -6%, -8%[46.1 µM], nt, -1%
> CC1CC(=O)Nc2ccccc2N1C(=O)CSc1nnnn1C (stereo unspecified)
→ nt, -2%, nt, 2%, 3%, 4%, nt, 14%
> Cc1cc2c3c(c1)C(C)CC(C)(C)N3C(=O)C2=C(C#N)C#N (stereo unspecified)
→ 0%, ?, nt, -2%, -3%, -12%[46.1 µM], nt, 2%
> Cn1c(/C=N/Nc2nc3ccccc3[nH]2)nc2ccccc21
→ nt, -23%, nt, -18%, ?, ?, nt, ?
> O=C(Cn1nc(Cc2ccncc2)c2ccccc2c1=O)Nc1cccc(C(F)(F)F)c1
→ nt, -27%, -7.3%, nt, nt, ?, 2%, -1%[46.1 µM]
> CCOc1ccc(N=C2C(=O)Nc3ccc(C)c(Br)c32)cc1
→ -6%, -2%, nt, 3%, -11%, 15%[46.1 µM], nt, 11%
> Cc1ccc(Cl)cc1NC(=O)Cn1nnc2sc3c(c2c1=O)CCC(C(C)(C)C)C3 (stereo unspecified)
→ nt, -18%, -3.8%, nt, nt, ?, 25µM*, -23%[46.1 µM]
> CCn1cc(S(=O)(=O)Nc2cc(C(=O)OC)ccc2C)cn1
→ 7%, 7%, nt, -7%, 11%, ?, nt, ?
> CC(C)(c1cc(Cl)c(O)c(CN2CCOCC2)c1)c1cc(Cl)c(O)c(CN2CCOCC2)c1
→ nt, -21%, nt, nt, 3%, ?, nt, ?
> CCCn1c2ccccc2c2cnn(CC(=O)Nc3ccccc3OC)c(=O)c21
→ nt, -17%, -1.5%, nt, nt, nt, -5%, ?
> Cc1ccc(-c2cn3cc(C)ccc3n2)cc1
→ nt, 8.9µM*, nt, -14%, -22%, 0.32µM*, nt, ?
> COc1ccc(OC)c(CN(CCN2CCOCC2)C(=O)Nc2ccccc2)c1
→ -14%, 25%, 1.9%, 3%, -2%, ?, -3%, -1%
> COc1cc(OC)cc(C(=O)Nc2cccc3nc(C)ccc23)c1
→ -14%, 12%, nt, 4%, 1%, ?, nt, ?
> CCNC(=O)CON=C1c2ccccc2-c2ccccc21
→ -11%, -11%, -4.7%, ?, -23%, ?, -9%, -16%
> CCOC(=O)c1c(NC(=O)CSc2nc3ccccc3s2)sc(C(C)=O)c1C
→ ?, nt, -1.6%, 2%, 1%, ?, -25%, ?
> CNC(=O)C(=O)NCCC1CCCCN1S(=O)(=O)c1cccs1 (stereo unspecified)
→ nt, -6%, nt, 4%, -20%, 6%, nt, 15%
> CN1CCN(CCCNC(=O)c2ccc(CSCc3cccc(Cl)c3)o2)CC1
→ -13%, 7%, 1.2%, -3%, -10%, ?, 2%, 11µM*
> Cc1ccc(C(=O)NNC(=O)c2ccoc2C)s1
→ nt, 44%[activator], nt, 1%, 28%, -1%[46.1 µM], nt, ?
